High-throughput results (PubChem)
HPGD block: inhibitors of human 15-hydroxyprostaglandin dehydrogenase (HPGD). P15428. AID 894. 150,000 compounds, 4.3% hits. Potency, µM, inactives show at the top dose activity change, negative = inhibition, usual class: inhibitors. purified HPGD, NADH fluorescence kinetic, PGE2 substrate; active = well fitted inhibition curve with a large enough effect (not every such curve was filed as active); inconclusive = small, poorly fitted or top-dose-only effect, or another doubt; inactive = no such curve, though single readings can be large or run the other way;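 further: top concentration of the series not given in the record; plate controls included wells without enzyme; inactives centre near -10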
Target sequence (P15428 whole entry, looked up): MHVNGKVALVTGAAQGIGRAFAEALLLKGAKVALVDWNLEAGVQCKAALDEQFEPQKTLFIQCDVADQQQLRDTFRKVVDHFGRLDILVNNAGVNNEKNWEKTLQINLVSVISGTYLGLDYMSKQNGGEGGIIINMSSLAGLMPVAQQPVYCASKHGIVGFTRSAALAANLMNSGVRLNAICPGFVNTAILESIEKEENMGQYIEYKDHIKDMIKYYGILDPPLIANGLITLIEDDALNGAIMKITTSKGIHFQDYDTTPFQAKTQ
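20 nM HPGD preincubated 15 min at room temperature with compound in 50 mM Tris-HCl pH 8, 0.01% Tween 20. Started with 1 mM NAD+ and 30 uM prostaglandin E2; NADH fluorescence (360/450 nm) read 5 times over 30-s intervals, last minus first.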
The depositor's hits bear a star; ? = inconclusive; & = joins results of further samples; ! = not active in a repeat. On the % scale 0 is the no-effect control and ±100 the full control effect; potency means the concentration at half of the fitted maximal effect. Only part of the results is shown, so the mix of outcomes need not match the whole.

nr	smiles	HPGD block
1	CCOc1ccc(OCC(=O)N2CCOCC2)cc1	0.1%
2	O=C(Nc1ccccc1)Nc1ccccc1	-9.9%&-7.6%
3	CC1(C)Cc2ccccc2-c2c1c(=O)n(Cc1ccccc1)c1nnnn21	-13.4%
4	COc1ccccc1N1CCN(c2cc(=O)n(-c3ccccc3Cl)c(=O)[nH]2)CC1	-4.3%
5	CS(=O)(=O)N(Cc1ccc(C(=O)NN=C2CCCCCC2)cc1)c1ccccc1	-9.9%
6	Cc1ccc(NCc2nnc(SCC(=O)c3ccccc3)o2)c(C)c1	-4.5%
7	COc1ccc(CCN2C(=NC(=O)CCC(=O)O)SC3CS(=O)(=O)CC32)cc1OC (centres undefined)	-8.7%
8	CCOC(=O)c1[nH]c(COC(=O)CCOc2ccccc2OC)c(C(=O)OCC)c1C	-11.5%
9	O=C(CNCC1CCCO1)Nc1ccc(N2CCCCCC2)cc1 (centres undefined)	-13.1%
10	CC(C)NC(=O)c1ccc(-c2cccc(C(F)(F)F)c2)o1	-9.3%
11	CC(=O)Nc1ccc(NC(=O)c2ccc(NS(=O)(=O)c3cc(C(C)(C)C)cc(C)c3C)cc2)cc1	-22.4%
12	Cc1cccc(N(C)S(=O)(=O)c2ccc3c(c2)CCC(=O)N3)c1	-9.0%
13	Cc1cc(C)c2c(C)c(C(=O)NCc3ccncc3)oc2c1	-24.1%
14	O=[N+]([O-])c1ccc(N2CCN(S(=O)(=O)c3ccc(Cl)cc3)CC2)cc1NCc1cccnc1	-4.4%
15	COc1ccc(-n2ncc3c(N4CCC(C(N)=O)CC4)ncnc32)cc1	-10.8%
16	C/C(=N\Oc1cccc(F)n1)c1ccc(Cl)cc1Cl	-12.2%
17	O=C(CCS(=O)(=O)Cc1ccccc1F)NCCCN1CCCCC1	3.1%
18	C[C@@H]1Oc2ccccc2C=C1/C=C/C(=O)O	?
19	CCCc1nccn1S(=O)(=O)c1cc(OC)ccc1OC	-2.6%
20	CC(=O)c1ccccc1NS(=O)(=O)c1c(C)nn(-c2ccccc2)c1C	-17.4%
21	CCOCCCNC(=S)NCCNc1nc2c(C)cccc2cc1C#N	?
22	Clc1cccc(-c2ccc(C=Nc3ccc(N4CCOCC4)cc3)o2)c1	-9.7%
23	O=C(COC(=O)c1cccc(Cl)c1)Nc1cc(Cl)ccc1Oc1ccccc1	-11.7%
24	CCc1ccc(/C=C2/SC(=S)N(CC(=O)Nc3nc4ccccc4s3)C2=O)cc1	-26.1%
25	CC(C)OC(=O)CCC1(C(=O)O)CCC(=O)NC1 (centres undefined)	-0.9%
26	Cc1c(C(=O)O)oc2c1C(O)CCC2 (centres undefined)	-1.5%
27	Cc1ccc(C2CC(C(F)(F)F)n3nc(C(=O)NCc4ccco4)cc3N2)cc1 (centres undefined)	-12.1%
28	O=C(Nc1cccnc1)c1ccc2c(c1)C(=O)N(Cc1cccnc1)C2=O	-19.1%
29	COCC(=O)Nc1ccccc1C#N	0.3%
30	CCN(CC)C(=O)CSc1nnc([C@@H](N)Cc2ccccc2)o1	-4.3%
31	O=C(Nc1ccc(F)c(F)c1)c1cc(S(=O)(=O)N2CCN(c3ccccn3)CC2)ccc1F	-7.4%
32	COc1nc(Nc2ccc3c(c2)OCO3)nc(OC)n1	-18.8%
33	COCc1cc(=O)[nH]c(Nc2nc3ccc(C)cc3o2)n1	-24.8%
34	CCN(CC)c1ccc(/C=C2/C(=O)c3ccc(C(=O)O)cc3C2=O)cc1	11.2µM*
35	Nn1c(SC/C=C/c2ccccc2)nnc1-c1ccncc1	-8.4%
36	CC(C)C(=O)Nc1ccc(-c2nc3cccnc3o2)cc1	?
37	c1ccc2nc(C3=NCCN3)cnc2c1	-9.4%
38	COC(=O)C1C2CC3c4[nH]c5cc(OC)ccc5c4CCN3CC2CC(OC(=O)c2cc(OC)c(OC)c(OC)c2)C1OC (centres undefined)	-9.2%
39	CCCCNC(=S)NNC(=O)C12CC3CC(CC(C3)C1)C2	0.7%
40	CCOc1ccccc1NC(=O)C(OC(=O)c1ccc(O)cc1)c1ccccc1 (centres undefined)	-10.4%
41	Cc1ccc(SC(C)c2nc(-c3ccncc3)no2)cc1 (centres undefined)	-20.9%
42	N#C/C(=C\NC(=S)c1ccncc1)c1nc2ccccc2s1	-17.3%
43	COc1ccccc1-c1cncnc1NCc1cccc(C)c1	-20.4%
44	Nc1ccc(N2CCN(CCCCN3C(=O)C4CCCN4C3=O)CC2)cc1 (centres undefined)	3.5%
45	O=c1cc(-c2ccc(O)cc2)oc2cc(O)cc(O)c12	31.6µM*!
46	Cc1cc(NC(=O)CSc2nc3ccsc3c(=O)n2NC(=O)c2ccccc2)no1	-4.4%
47	CC1CCCCN1S(=O)(=O)c1ccc2c(c1)CCN2C(=O)C1CCC1 (centres undefined)	?
48	COC(=O)C1C(O)=C(C=NC2CCCCC2)C(=O)CC1(C)C (centres undefined)	-5.6%
49	COCCN1C(=O)N[C@@H](c2cccc(C(F)(F)F)c2)[C@H](C(C)=O)[C@H]1C	-6.1%
50	O=C(N/N=C/c1ccc(Br)o1)c1cccnc1	-12.1%

Next section.
nr	smiles	HPGD block
51	O=C1CSC(c2ccccn2)N1Cc1cn2ccccc2n1 (centres undefined)	-4.8%
52	CCOc1ccc(NC(=O)CN(Cc2ccccc2)S(C)(=O)=O)cc1	-0.6%
53	O=C(NCCc1ccccc1)C1CCN(S(=O)(=O)N2CCC3(CC2)OCCO3)CC1	-0.8%
54	Cc1ccc(NC(=S)NC(NC(=O)c2ccccc2)C(Cl)(Cl)Cl)c(C)c1 (centres undefined)	-3.9%
55	Cc1cccc(CSc2nnc(C)c(=O)n2N)c1	-5.6%
56	O=C(Cn1c(=O)oc2cc(S(=O)(=O)N3CCCCCC3)ccc21)NC1CCCCCCC1	-12.6%
57	CCOC(=O)c1cc2sccc2n1CCCN1C(=O)c2ccccc2C1=O	-5.0%
58	Cc1coc(C)c1C(=O)CC1(O)C(=O)N(Cc2ccccc2)c2ccccc21 (centres undefined)	-27.0%
59	CCOC(=O)c1[nH]c2ccc(OC)cc2c1NC(=O)C(C)N1CCC2(CC1)OCCO2 (centres undefined)	?
60	O=C(O)c1ccc(NS(=O)(=O)/C=C/c2ccccc2)cc1	-4.5%
61	CCC(=O)Nc1sc2c(c1C#N)CC(C)(CC)OC2 (centres undefined)	39.8µM*
62	Cn1nc(C(=O)NCc2cccs2)c2ccccc2c1=O	-13.7%
63	Cc1nnc(NC(=O)C(C)Oc2ccc3c(C)cc(=O)oc3c2)s1 (centres undefined)	?
64	CC(C)CCn1nnnc1C(c1ccccc1)N1CCC(C(N)=O)CC1 (centres undefined)	3.7%
65	CN(C)c1nc(OCCNC(=O)Nc2ccccc2)nc(N2CCOCC2)n1	-4.0%
66	O=C(NCc1cccs1)C1CC(=O)N(c2ccccc2)C1 (centres undefined)	-3.0%
67	O=C(CN1CCCCC1)Nc1ccc(F)c(Cl)c1	?
68	COc1ccc(CNC(=O)CN(c2cccc(OC)c2)S(C)(=O)=O)cc1	0.9%
69	COc1ccccc1NC(=O)c1cccc(S(=O)(=O)N2CCOCC2)c1	-7.9%
70	COC(=O)c1ccccc1NC(=O)c1ccc(F)cc1	-18.0%

Copied from above: compounds 1–7
nr	smiles	HPGD block
1	CCOc1ccc(OCC(=O)N2CCOCC2)cc1	0.1%
2	O=C(Nc1ccccc1)Nc1ccccc1	-9.9%&-7.6%
3	CC1(C)Cc2ccccc2-c2c1c(=O)n(Cc1ccccc1)c1nnnn21	-13.4%
4	COc1ccccc1N1CCN(c2cc(=O)n(-c3ccccc3Cl)c(=O)[nH]2)CC1	-4.3%
5	CS(=O)(=O)N(Cc1ccc(C(=O)NN=C2CCCCCC2)cc1)c1ccccc1	-9.9%
6	Cc1ccc(NCc2nnc(SCC(=O)c3ccccc3)o2)c(C)c1	-4.5%
7	COc1ccc(CCN2C(=NC(=O)CCC(=O)O)SC3CS(=O)(=O)CC32)cc1OC (centres undefined)	-8.7%

The list continues.
nr	smiles	HPGD block
71	O=C(CSc1ncnc2c1cnn2CCO)Nc1cccc(C(F)(F)F)c1	0.1%
72	Cc1cc(C(=O)C(C)OC(=O)C2=NNC(=O)CC2)c(C)n1-c1ccc(OC(F)F)cc1 (centres undefined)	-7.3%
73	O=C(c1cc2c(s1)CCC2)N1CCN(c2ccccc2)CC1	-14.9%
74	CCCCC1=CC2=CC(=O)C(C)(OC(=O)CC)C(=O)C2=CN1C1CCCC1 (centres undefined)	0.9%
75	Cc1ccc(NC(=O)COC(=O)c2ccc([N+](=O)[O-])s2)c(C)c1	0.4%
76	O=C1c2ccccc2NC2CCCCCN12 (centres undefined)	?
77	O=C(O)C1C2C=CC(O2)C1C(=O)Nc1ccc(S(=O)(=O)Nc2ccccc2)cc1 (centres undefined)	?
78	S=C(S)NCCCn1ccnc1	-9.7%
79	O=C(CCCCl)NC1=NN(c2ccccc2)C(=O)C1	-5.3%
80	CC1CSc2ccccc2NC1=S (centres undefined)	-27.0%
81	CCN(CC)CCN1C(=O)C(O)=C(C(=O)c2ccco2)C1c1ccccn1 (centres undefined)	-6.8%
82	COc1cc2c(cc1OC)CN(C(=O)C1(c3ccccc3)CC1)CC2	-15.9%
83	CCc1ccc2[nH]c3nc(C)cc(C)c3c(=O)c2c1	6.7%
84	CCCOc1ccc(N2C(=O)CC(NCCNc3ccc(S(=O)(=O)CC)cc3)C2=O)cc1 (centres undefined)	-12.2%
85	O=S(=O)(NC12CC3CC(CC(C3)C1)C2)c1ccc(F)cc1	-9.6%
86	CN(Cc1ccccc1)c1ccc(N2C(=O)CCCC2=O)cc1[N+](=O)[O-]	-4.1%
87	CC(C)NC(=O)C(OC(=O)c1ccccc1)C(OC(=O)c1ccccc1)C(=O)O (centres undefined)	-2.8%
88	COc1ccc(NC(=O)c2ccc(NC(=O)C(C)C)cc2)c([N+](=O)[O-])c1	-4.2%
89	O=C(COc1ccc(Cl)cc1Cl)Nc1ccccn1	2µM*
90	O=C1CCCC(O)=C1C=Nc1ccc(O)cc1	?
91	CC1(CC(=O)N/N=C/c2ccc(-c3ccc(C(=O)O)cc3)o2)OCCO1	?
92	CCOC(=O)CNC(=O)CSc1nc(N)cc(N)n1	-4.3%
93	Cn1c(=O)c2c(nc(N3CCCCC3)n2CCNC2=NCCC2)n(C)c1=O	2.2%
94	CSc1cc(-c2ccc(Cl)cc2)c(C(=O)N2CCCC2)s1	-17.2%
95	Cc1[nH]c2ccccc2c1C(=O)CN1CCCC1	-9.6%
96	O=C1c2ccccc2C(=O)C1c1nccc2ccccc12	1.6%
97	CC1(C)CC(=O)C(C=NCCN2CCOCC2)=C(O)C1	-12.3%
98	CC1=CCC(Cc2nc3ccccc3o2)C1(C)C (centres undefined)	-9.3%
99	C=C(C)COc1ccc2c(c1)CCC1C2CC[C@]2(C)C(=O)/C(=N/O)CC12 (some centres undefined)	2.0%
100	Cc1cccc(NC(=O)C2CCN(c3nccc(C)n3)CC2)c1	-11.3%
101	Cc1ccc(-n2nc(C)c(C3C(C#N)=C(N)OC4=C3C(=O)CC(C)(C)C4)c2Cl)cc1 (centres undefined)	-6.8%
102	CCOC(=O)N1CCN(CCC(=O)Nc2cc(OC)cc(OC)c2)CC1	-3.1%
103	N[C@H](C(=O)O)c1ccc(C(=O)O)c(O)c1	?
104	CC(C)OC(=O)CSc1nnc(-c2ccc(Cl)cc2Cl)n1N	-13.1%
105	COCCNc1oc(COc2cccc(C)c2)nc1C#N	-11.7%
106	CCOC(=O)c1c(C)[nH]c(C)c1C(=O)COC(=O)[C@@H]1CCCN1S(=O)(=O)c1ccc(Cl)cc1	-11.9%
107	CCC1(CC)NC(=O)N(CC(=O)NCc2ccc3c(c2)OCO3)C1=O	-20.9%
108	Cc1cc(Cl)ccc1NC(=S)N(CCCN1CCOCC1)Cc1cccs1	-5.1%
109	COC(=O)c1c(S(C)(=O)=O)nc(-c2ccccc2)[nH]c1=O	-7.6%
110	CN1CCc2c(c3ccccc3n2Cc2ccccc2)C1	-4.7%&-3.8%&-6.2%
111	COc1ccc(S(=O)(=O)CCC(=O)Nc2ccc(OC)cc2OC)cc1	-18.2%
112	COc1ccc(C)cc1NC(=O)c1cc2c(s1)CCC2	-3.6%
113	O=C(COC(=O)Cc1ccc2c(c1)OCCO2)Nc1ccc(S(=O)(=O)N2CCCC2)cc1	-1.0%
114	CCCCCC[C@@H]([C@@H](C)O)n1cnc2c(N)ncnc21	-11.7%&-13.1%
115	COC(=O)[C@H](Cc1ccccc1)NC(=O)O[C@@H]1C(=O)c2cc(Br)ccc2O[C@H]1c1ccc2c(c1)OCO2	-7.7%
116	O=C(O)C1CC(C2CCCCN2)CN2CCCCC12 (centres undefined)	-0.9%
117	O=C(NCc1ccco1)Nc1ccc2nsnc2c1	?
118	O=C(c1ccc(Cn2cc(Cl)cn2)cc1)N1CCN(c2ccccc2)CC1	-2.6%
119	C[C@@H](C1[C@@H](O)CC2C3C=CC4C[C@@H](O)CC[C@]4(C)[C@H]3CC[C@@]21C)[C@@H]1CCCCN1 (some centres undefined)	-8.1%
120	CCCC(=O)Nc1ccc(NC(=O)Cc2ccccc2)cn1	-9.9%

Next part:
nr	smiles	HPGD block
121	CCOC(=O)c1c(C)c(-c2ccccc2)n(CC(=O)NCCC(C)C)c1C	-7.3%
122	CC(C)[C@@H](CC(=O)N[C@@H]1CCCC[C@H]1C(=O)N[C@H](CC(=O)N[C@@H](CCC(=O)O)CC(=O)O)Cc1c[nH]c2ccccc12)NC(=O)C[C@H](Cc1c[nH]c2ccccc12)NC(=O)[C@@H]1CCCC[C@H]1N	0.7%
123	Fc1cccc(NCc2ccoc2)c1	?
124	CCCCOC(=O)c1ccc(NC(c2ccc(C)cc2)P(=O)(OC)OC)cc1 (centres undefined)	-21.8%
